Assay outcomes: PubChem BioAssay, Fisher Drug Discovery Resource Center
NPYLR7 ag: mosquito NPYLR7 agonism | HEK293T NPYLR7/Galpha15, GCaMP6s calcium fluorescence | activation, % at 10 µM | 270,000 compounds, 0.15% hits | AID 1259423; in the data active = activation above about 40%;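 note: 0% = vehicle and 100% = reference agonist at the receptor; some compounds past the cut are filed as inactive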
NPYLR7 ag max-min: recorded beside NPYLR7 ag, whose call it bears; activation, %; measured here: Max-Min RFU normalised activation; some inactives read as strong as hits;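 span of the calcium signal over five minutes; 0% = vehicle and 100% = native peptide agonist; compound fluorescence can raise it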
* hit, by the source's call; & = joins results of further samples.

SMILES | NPYLR7 ag | NPYLR7 ag max-min
O=C(NC1CC(=O)N(CCc2ccccc2)C1)c1ccccc1-n1cncn1 (stereo not drawn) | 6 | 3
COCCN(Cc1cc(NC(=O)C2CCC2)ccc1N(C)C)C(=O)c1ccccc1Cl | 2 | 6
CCCC(NC(=O)Cc1cccc2cccnc12)c1ccccc1 (stereo not drawn) | 11 | 9
COc1ccc(-c2[nH]ncc2CNC(C)c2ccccc2Cl)cc1F (stereo not drawn) | -15 | -13
O=C(Cn1ccnc1)Nc1ccc(S(=O)(=O)N2CCOCC2)cc1 | -3 | -3
COc1ccc(CN(C)CC(=O)Nc2oc(C)c(C)c2C#N)cc1OC | 5 | 5
CC(=O)c1cccc(-c2cnc3c(NC=O)cc(-c4ccc(N(C)C)cc4)cn23)c1 | 13 | 12
O=C(c1cc2sccc2[nH]1)N(Cc1cccnc1)CC1CCCN(C2CCCCC2)C1 (stereo not drawn) | 1 | 0
c1cncc(-c2nc3c4ccccc4nc(NC4CC4)n3n2)c1 | 1 | -2
CCc1nnc(CNC(=O)c2cccc(CC3CCNCC3)c2)s1 | 0 | -4
COc1cccc(-c2nnc(SCc3ccc(C(=O)N4CCCC4)cc3)n2-c2ccccc2OC)c1 | 16 | 13
C(=N/n1cnnc1)/c1ccc(OCCOc2ccc(C3CCCCC3)cc2)cc1 | -3 | -3
CCC(C)N(Cc1ccc(F)cc1)Cc1nc(C(=O)NCc2cccnc2)co1 (stereo not drawn) | -5 | -16
O=C(NCc1ccco1)N1CCC(n2cc(-c3ccccn3)nn2)CC1 | 18 | 3
COc1cccc(Cn2c(=O)c(C(=O)NCc3ccco3)nn(-c3cc(C)cc(C)c3)c2=O)c1 | -1 | 6
CCCOc1cc(Nc2ccc(NC(=O)Nc3cccc(F)c3)cc2)nc(C)n1 | 29 | 28
COc1ccc(C(=O)N=Nc2c(O)n(CN3CCOCC3)c3ccccc23)cc1OC | -4&11 | -6&6
CCOc1ccccc1NC(=O)N1CCN(c2nc(C)nc(C)c2Cc2ccccc2Cl)CC1 | 17 | 14
CCOc1cc(/C=N\n2cnnc2)ccc1OCCOc1cc(C)ccc1C(C)C | 0 | -1
COc1ccc2nc(N(Cc3cccnc3)C(=O)c3cc(C)nn3C)sc2c1 | 6 | 3
Cc1nc(CN(C)Cc2ccccc2-c2ccccc2)no1 | 10 | 7
CCc1[nH]c2ccc(CNC(=O)C3CC(=O)N(CCN(C)C)C3)cc2c1C (stereo not drawn) | -10 | -9
O=C(O)C[C@H](O)C[C@H](O)/C=C/c1c(C2CC2)nc2ccccc2c1-c1ccc(F)cc1 | 0 | -2
COc1ccc(CCNC(=O)c2nnn(CC(=O)Nc3c(C)cccc3C)c2N)cc1OC | 10 | 13
COc1ccccc1OCC1CN(C(=O)c2cccc(OC)c2C)CCO1 (stereo not drawn) | 3 | 8
CC(C)c1nc(CNC(=O)c2cn(C/C=C/c3ccccc3)nn2)cs1 | 8 | 5
CN(Cc1noc(C2CCC2)n1)C(=O)COc1cccnc1 | 5 | 0
CN(Cc1nc2ccccc2[nH]1)C(=O)c1cccc(CC2CCNCC2)c1 | 6 | 0
CCc1nc2c(OCc3cc(Cl)cc(Cl)c3)cccn2c1N(C)C(=O)c1ccc(OC)cc1 | -2 | -4
C=CCNC(=O)C(NC(=O)c1ccc(OC)cc1)C1CCN(C(=O)c2ccccc2C)CC1 (stereo not drawn) | -3 | 5

In a second layout: entries from further up
Values run as follows: NPYLR7 ag, NPYLR7 ag max-min
COc1cccc(-c2nnc(SCc3ccc(C(=O)N4CCCC4)cc3)n2-c2ccccc2OC)c1
    16, 13
C(=N/n1cnnc1)/c1ccc(OCCOc2ccc(C3CCCCC3)cc2)cc1
    -3, -3
CCC(C)N(Cc1ccc(F)cc1)Cc1nc(C(=O)NCc2cccnc2)co1 (stereo not drawn)
    -5, -16
O=C(NCc1ccco1)N1CCC(n2cc(-c3ccccn3)nn2)CC1
    18, 3
COc1cccc(Cn2c(=O)c(C(=O)NCc3ccco3)nn(-c3cc(C)cc(C)c3)c2=O)c1
    -1, 6
CCCOc1cc(Nc2ccc(NC(=O)Nc3cccc(F)c3)cc2)nc(C)n1
    29, 28
COc1ccc(C(=O)N=Nc2c(O)n(CN3CCOCC3)c3ccccc23)cc1OC
    -4&11, -6&6
CCOc1ccccc1NC(=O)N1CCN(c2nc(C)nc(C)c2Cc2ccccc2Cl)CC1
    17, 14
CCOc1cc(/C=N\n2cnnc2)ccc1OCCOc1cc(C)ccc1C(C)C
    0, -1
COc1ccc2nc(N(Cc3cccnc3)C(=O)c3cc(C)nn3C)sc2c1
    6, 3
Cc1nc(CN(C)Cc2ccccc2-c2ccccc2)no1
    10, 7
CCc1[nH]c2ccc(CNC(=O)C3CC(=O)N(CCN(C)C)C3)cc2c1C (stereo not drawn)
    -10, -9
O=C(O)C[C@H](O)C[C@H](O)/C=C/c1c(C2CC2)nc2ccccc2c1-c1ccc(F)cc1
    0, -2
COc1ccc(CCNC(=O)c2nnn(CC(=O)Nc3c(C)cccc3C)c2N)cc1OC
    10, 13
COc1ccccc1OCC1CN(C(=O)c2cccc(OC)c2C)CCO1 (stereo not drawn)
    3, 8
CC(C)c1nc(CNC(=O)c2cn(C/C=C/c3ccccc3)nn2)cs1
    8, 5
CN(Cc1noc(C2CCC2)n1)C(=O)COc1cccnc1
    5, 0
CN(Cc1nc2ccccc2[nH]1)C(=O)c1cccc(CC2CCNCC2)c1
    6, 0
CCc1nc2c(OCc3cc(Cl)cc(Cl)c3)cccn2c1N(C)C(=O)c1ccc(OC)cc1
    -2, -4

Going on with the list:
SMILES | NPYLR7 ag | NPYLR7 ag max-min
O=c1nccc(C(F)(F)C(F)(F)F)[nH]1 | 3 | 7
C=C(C)COc1ccc(-c2onc(C)c2-c2ccc(OC)cc2)c(O)c1 | 0 | -4
COc1ccc2[nH]cc(C3CCN(C(=O)CC(C)(C)C)CC3)c2c1 | 2 | 5
CCC(O)CN(Cc1cccc(F)c1)Cc1ccco1 (stereo not drawn) | -7 | 6
Cc1cc(N2CCN(C/C=C/c3ccccc3)CC2)nc(SCc2ccc(C(=O)N3CCOCC3)o2)n1 | -14 | -13
COc1ccc(Nc2nc(NCc3ccccn3)nc3[nH]ncc23)cc1 | 3 | 1
COc1ccc(C(CNC(=O)c2cc(F)c(Cl)cc2Cl)N2CCOCC2)cc1 (stereo not drawn) | 2 | 8
Oc1ccc(Nc2nc(N3CCOCC3)c3ccccc3n2)cc1 | -3 | 4
Cc1cc(N2C(=O)c3oc4ccc(Cl)cc4c(=O)c3C2c2cccnc2)no1 (stereo not drawn) | 6 | 2
COc1cccc(NC(=O)c2cccc(CN3CCCC(O)C3)c2)c1 (stereo not drawn) | 7 | 3
COc1ccccc1-n1nnc(C(=O)Nc2ncc(Cc3ccccc3)s2)c1C | -3 | -11
O=C(O)C1CC(=O)N(Cc2nccn2Cc2ccccc2)C1 (stereo not drawn) | 8 | 2
Cc1cccc(N2CC(=O)NC2=Nc2nc(C)cc(C)n2)c1 | 1 | 0
CC(Cc1cccs1)N(Cc1ccc(Cl)cc1)C(=O)C1CC1 (stereo not drawn) | 3 | -1
Cn1ccc(NS(=O)(=O)/C=C/c2ccc(Cl)cc2)n1 | 9 | 10
Cc1cc(C)n(-c2ccc(NC(=O)NC3CC3c3cccc(F)c3)cc2F)n1 (stereo not drawn) | 5 | 4
COC(=O)COc1ccc2c(=O)c(-c3ccc4c(c3)OCCCO4)c(C)oc2c1 | 0 | -8
CC(=O)N1CCN(C(=O)c2nn(-c3ccc(C)c(F)c3)c(=O)n(Cc3cccc(Cl)c3)c2=O)CC1 | -1 | 8
CCCOc1ccccc1OCc1nnc(C2CC2)o1 | 0 | -2
CCOc1nc(-c2cccc(F)c2)n(-c2ccc(NCC(C)O)cc2)n1 (stereo not drawn) | -1 | -2
O=C(CSc1nc2ccccc2s1)Nc1cccc(C(F)(F)F)c1 | 0 | 0
COc1ccccc1-c1cnn2c(C)c(C(=O)NCc3ccc(C)o3)cnc12 | 10 | 20
Cc1ccccc1C(CC(=O)O)c1cnc2c(C)cccn12 (stereo not drawn) | 9 | 9
COc1ccccc1OCC(=O)NCc1nc(C(C)(C)C)cs1 | -5 | -5
Cc1nc(CC(=O)NC2CCCc3c2cnn3-c2ccc(F)cc2F)cs1 (stereo not drawn) | 7 | 2
O=C(Cc1nc(-c2ccncc2)n[nH]1)NCc1ccco1 | 3 | 5
CCCN(Cc1cc(NS(=O)(=O)c2ccc(OC)cc2)ccc1N(C)C)C(=O)C(C)(C)C | 6 | 10
COCc1cc(N(C)CCc2ccc(OC)c(OC)c2)nc(SCc2ccc(C(=O)NCC3CCCO3)o2)n1 (stereo not drawn) | 10 | 12
Cc1c(C(=O)Nc2cccc(Oc3ccccc3)c2)sc(=O)n1CC(=O)N(C)C | 15 | 8
Cc1ccc(NC(=O)c2ccc(-n3nc(C)cc3C)cc2)cc1 | 6 | 8
Cc1ccc(Cc2nc(N3CCCN(C(=O)/C=C/c4ccccc4)CC3)c3c(-c4cccnc4)noc3n2)cc1 | 12 | 3
O=C(c1csnn1)N1CCc2onc(-c3cccc(F)c3)c2C1 | 19 | 10
CC(C)(C)NC(=O)c1ccc(C(=O)NS(=O)(=O)C2CCOCC2)cc1 | -2 | -6
CCN1CCN(C2CCNCC2)CC1 | -8 | -12
Cc1ccc2c(c1)c(C(=O)N1CCC3(CCCO3)CC1)nn2C | 4 | 2
CCOC(=O)C1=C(C)N(C)C(=O)NC1c1cccc2ccccc12 (stereo not drawn) | 4 | 3
COc1cccc(OC)c1OCc1nc(C(=O)O)cs1 | 31 | 43
CC(C)c1[nH]n(-c2ccc(F)cc2)c(=O)c1C1=C(N2CCOCC2)C(=O)N(C2CCCCC2)C1=O | -4 | 2
Cc1cccc2oc(Cc3cccc(N)c3)nc12 | -12 | -10
COc1cc(C)ccc1Oc1cc(N2CCNC(C)C2)ncn1 (stereo not drawn) | 11 | 15

2 of these compounds, set out differently.
SMILES	NPYLR7 ag	NPYLR7 ag max-min
CCN1CCN(C2CCNCC2)CC1	-8	-12
Cc1ccc2c(c1)c(C(=O)N1CCC3(CCCO3)CC1)nn2C	4	2

Next section.
SMILES | NPYLR7 ag | NPYLR7 ag max-min
COc1ccc2c(c1)CCCC2CC(=O)NCc1c(C)noc1C (stereo not drawn) | 2 | -1
COc1ccc(-c2cn(-c3ccc(C(C)C)cc3)c(=S)[nH]2)cc1OC | -2 | -4
COc1ccc(C(=O)N2CCSC23CCNCC3)cc1 | 16 | 16
N#CC1C(=N)Oc2cc(N)ccc2C1c1ccc(Cl)cc1Cl (stereo not drawn) | 6 | -1
CCOC(=O)C1(Cc2ccccc2Cl)CCN(C(=O)c2cc(OC)ccc2OC)CC1 | 11 | 1
OC(CNc1cccc(F)n1)COCC1CC1 (stereo not drawn) | -2 | -7
CC(C(=O)N1CCc2[nH]c3c(Br)cccc3c2C1)n1cncn1 (stereo not drawn) | -6 | -7
COc1ccc(NC(=O)Nc2ccc(Nc3cc(-n4ccnc4)ncn3)cc2)cc1Cl | -12 | -18
CO/N=C(/C(=O)NC1C(=O)N2C(C(=O)OCOC(=O)C(C)(C)C)=C(/C=C\c3scnc3C)CSC12)c1csc(N)n1 (stereo not drawn) | 5 | 4
COCCNC(=O)NC(=O)CN(Cc1ccccc1)c1ccc(C)cc1 | 6 | 3
COC(=O)c1sc(N)c(C(=O)OC)c1COC(=O)CCC1CCCCC1 | 4 | 3
CNC(=O)CC1CCN(C(=O)NCc2cc(C(C)C)no2)CC1 | 0 | 6
O=C(Nc1cc(Cl)ccc1N1CCOCC1)c1ccco1 | 11 | 12
COc1ccc(-c2[nH]nc3c2C(c2cc(OC)c(O)c(OC)c2)C(C#N)C(=N)O3)cc1 (stereo not drawn) | 3 | -1
CCCCC(O)=C1C(=O)CC(C)(C)CC1=NCCCCCC(=O)O | 1 | -2
COc1cc2c(cc1OC)CN(C1CCCN(C(=O)c3ccccc3Cl)C1)CC2 (stereo not drawn) | 25 | 40
COc1ccccc1C1=NN(C(=O)CN2CCCC2)C(c2ccccc2Cl)C1 (stereo not drawn) | 21 | 19
CC(=O)c1cccc(S(=O)(=O)N2CCC(C(=O)N3CCCc4ccccc43)CC2)c1 | -4 | -5
Cc1oc(-c2ccccc2Cl)cc1C(=O)NC(C)C | -3 | -11
COc1ccc2oc(=O)n(C3CCN(C(=O)c4cncc(Br)c4)CC3)c2c1 | 17 | 13
CCn1c(=S)[nH]c2scc(-c3ccco3)c2c1=O | 4 | 2
Cc1ccc(NC(=O)Cn2nc3ccc(SC4CCCCC4)nn3c2=O)c(Cl)c1 | 0 | -4
Cc1nnc(SCCCNC(=O)c2cc3n(n2)CCN(C)C3)s1 | 12 | 0
COCCOc1ccc(-c2cc(C)nc(N)n2)cc1 | 17 | 8
COc1cccc(CN2CC(C(=O)N3CCCN(c4ncccn4)CC3)CCC2=O)c1 (stereo not drawn) | 18 | 4
Cc1cc(Cl)ccc1Nc1nc(N2CC(C)OC(C)C2)nc2nccnc12 (stereo not drawn) | 0 | 9
CC(C)CNc1ccc2c(n1)C(=O)N([C@H](C)C(=O)NCC(C)(C)C)C2 | 8 | 2
Cc1nnc(NC(=O)N(C)CC2COc3ccccc3O2)s1 (stereo not drawn) | 2 | 1
Cc1cn2c3c(=O)n(Cc4ccc(Cl)cc4)c(=O)n(C)c3nc2n1CCO | 10 | 7
O=C(COC(=O)C12CC3CC(CC(O)(C3)C1)C2)NC12CC3CC(CC(C3)C1)C2 | 1 | 2
CNC(C)c1cccs1 (stereo not drawn) | -1 | 11
COCCNc1nccc2[nH]c(-c3cccc(C(C)C)c3)nc12 | -6 | -10
O=C(Nc1ccc(F)c(F)c1)N1CCc2ccccc2C1c1ccccc1Cl (stereo not drawn) | -2 | 8
CC(=O)NC1CCCN(C(=O)C2CC(=O)N(C)c3ccccc32)C1 (stereo not drawn) | 10 | 14

The list is partial (hit frequency here may not be typical).
